# FPRL1 ligand: human FPRL1 ligands by binding competition, primary screen, cell-based, FPR counter-screen, flow cytometry; N-formyl peptide receptor 2 (Homo sapiens), P25090; FPRL1-expressing cells, fluorescent ligand binding inhibition; inhibition, %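 (tested at 6.7 µM)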; 24,000 tested, 0.3% active; AID 441, 2006;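 further: 0% = buffer alone and 100% = receptor blocker peptide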
# Target sequence (P25090 whole entry, looked up): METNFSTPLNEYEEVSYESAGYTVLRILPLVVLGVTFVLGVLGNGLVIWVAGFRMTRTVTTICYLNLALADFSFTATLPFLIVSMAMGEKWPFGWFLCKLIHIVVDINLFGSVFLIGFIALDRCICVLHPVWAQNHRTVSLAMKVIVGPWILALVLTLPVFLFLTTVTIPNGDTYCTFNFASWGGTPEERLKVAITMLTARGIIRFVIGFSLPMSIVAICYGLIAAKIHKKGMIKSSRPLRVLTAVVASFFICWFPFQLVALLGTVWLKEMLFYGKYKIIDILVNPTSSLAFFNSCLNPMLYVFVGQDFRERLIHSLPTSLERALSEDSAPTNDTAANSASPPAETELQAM
# VCAM-1 augmentation: enhancers of VCAM-1 display on endothelial cells, imaging, high-content imaging, pooled HUVEC, TNFa stimulus (AID 457) | Pooled HUVEC, TNFa-induced VCAM-1 immunofluorescence imaging; hits of this screen are not shown here | calls only | 10,000 tested, 0.2% active;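 active means a top-ranked rise in VCAM-1 staining upheld on image or statistical review; inactive means the rest, including candidates rejected on review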;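 further: compounds tested at 5 µM in the well; cells exposed to compound for 24 hours before fixing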
# VCAM-1 imaging: inhibitors of TNFa-induced VCAM-1 surface display, imaging, high-content imaging, pooled HUVEC, TNFa stimulus (AID 456); HUVEC TNFa-induced VCAM-1 surface expression, immunofluorescence imaging; numbers were filed only for top-ranked candidate wells; inhibition, % at 5 µM; hits with a dose series show IC50 in µM; 10,000 tested, 0.2% active;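 active means top tenth filtered wells with inhibition above zero that passed visual or statistical confirmation; inactive means the rest, including hits rejected on review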;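 further: 0% = stimulated vehicle wells and 100% = unstimulated cells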
# VCAM-1 inhibition: inhibitors of TNFa-induced VCAM-1 surface display, cell-based, plate reader, pooled HUVEC, TNFa stimulus (AID 454) | 10,000 tested, 0.2% active | HUVEC TNFa-induced VCAM-1 surface immunofluorescence, plate reader; numbers were filed only for top-ranked candidate wells | inhibition, % at 5 µM;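 active means compound among top-ranked inhibitors of TNF-induced VCAM-1 adhesion protein staining, with the hit upheld by image or statistical review; inactive means the rest, including hits rejected on review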;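 further: 0% = TNFa with vehicle and 100% = cells without TNFa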
# FPR binder: human FPR ligands by binding competition, primary screen, cell-based, FPRL1 counter-screen, flow cytometry. FPR-expressing cells, fluorescent ligand binding. 24,000 tested, 0.74% active. inhibition, %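 (tested at 6.7 µM)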. AID 440, 2006;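 further: 0% = buffer wells and 100% = receptor blocker peptide wells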
# Target sequence (P21462 whole entry, looked up): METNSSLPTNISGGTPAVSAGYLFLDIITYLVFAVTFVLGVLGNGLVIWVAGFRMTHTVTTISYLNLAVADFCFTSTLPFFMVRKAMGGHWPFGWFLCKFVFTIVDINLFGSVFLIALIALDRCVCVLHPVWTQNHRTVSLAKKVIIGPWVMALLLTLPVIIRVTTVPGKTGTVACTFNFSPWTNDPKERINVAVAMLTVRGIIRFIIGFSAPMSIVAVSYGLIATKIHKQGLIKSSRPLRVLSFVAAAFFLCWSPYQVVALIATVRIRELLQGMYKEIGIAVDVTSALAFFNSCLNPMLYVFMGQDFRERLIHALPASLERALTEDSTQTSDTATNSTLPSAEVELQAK
# Numbers without * were called inactive; i = inactive; . = not tested or not shown.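 How the source made its calls, unless noted: active means mean above 30%; inconclusive means self-fluorescent; inactive means the rest.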
SMILES,FPRL1 ligand,VCAM-1 augmentation,VCAM-1 imaging,VCAM-1 inhibition,FPR binder
CCC(=O)Nc1c2c(nc3c1CCC3)CCCC2,-2,.,.,.,6
CC1CC(=O)N(Cc2ccccc2)c2ccccc2N1C=O (configuration not stated),1,.,.,.,-1
COc1ccc(OC)c(NC(=O)C2CCCN2C(=O)C2CCC(C)CC2)c1 (configuration not stated),9,.,.,.,2
O=C(Nc1ccc2ccccc2c1)N1CCN(c2ncccc2C(F)(F)F)CC1,4,.,.,.,5
CCCCOc1cccc(NC(=O)CSc2nccn2C)c1,-7,i,i,i,0
CC1(C)C(c2ccccc2)=NC(c2ccccc2)N1O (configuration not stated),7,i,i,i,5
Cc1cccc2cc(C(c3nnnn3C(C)(C)C)N3CCN(C(=O)c4ccco4)CC3)c(=O)[nH]c12 (configuration not stated),-3,i,i,i,7
CSc1nsc(SC)c1NC(=O)OCC1CCCO1 (configuration not stated),-6,.,.,.,7
CC(C)COC(=O)NCC12C=CC(O1)C1C(=O)N(c3ccc(Cl)cc3)C(=O)C12 (configuration not stated),-1,i,i,i,-6
CCC(Sc1nc(-c2ccccc2)c(C#N)c(=O)[nH]1)C(=O)Nc1cc(C)on1 (configuration not stated),2,i,i,i,7
Cc1csc(NC(=O)CCNS(=O)(=O)c2ccc3c(c2)c(=O)n(C)c(=O)n3C)n1,11,.,.,.,-3
CN(CCCNC(=O)c1cccc(N2CCCC2=O)c1)c1ccccc1,4,.,.,.,4
O=C(c1cc(-c2cccc(O)c2)on1)N1CCCCC1,7,.,.,.,3
Cc1nc2c(C)cccn2c1/C(O)=C1\C(=O)C(=O)N(CCN2CCOCC2)C1c1cccs1 (configuration not stated),22,.,.,.,25
CC(C)c1cc(C(=O)N2CCN(C(c3ccccc3)c3ccccc3)CC2)no1,3,.,.,.,-2
Cc1ccnc(NC(=O)CSc2cc(=O)n(C)c3ccccc23)c1,-1,.,.,.,10
CCn1c(=O)cc(SCC(=O)NCCCN2CCN(c3ccc(F)cc3)CC2)c2ccccc21,5,.,.,.,0
CCC(CC)C(=O)Nc1c2c(nn1-c1ccc(OC)cc1)CS(=O)C2 (configuration not stated),-1,.,.,.,-1
CC1C=CCC2C(=O)N(c3cccc(C(=O)N4CCCCCC4)c3)C(=O)C12 (configuration not stated),-6,.,.,.,-8
Cc1cc2c(cc(C(=O)O)n2C)s1,6,.,.,.,-5

# Reformatted as labelled records: part of the list above
> Cc1nc2c(C)cccn2c1/C(O)=C1\C(=O)C(=O)N(CCN2CCOCC2)C1c1cccs1 (configuration not stated)
  FPRL1 ligand: 22; VCAM-1 augmentation: .; VCAM-1 imaging: .; VCAM-1 inhibition: .; FPR binder: 25
> CC(C)c1cc(C(=O)N2CCN(C(c3ccccc3)c3ccccc3)CC2)no1
  FPRL1 ligand: 3; VCAM-1 augmentation: .; VCAM-1 imaging: .; VCAM-1 inhibition: .; FPR binder: -2

# Next records follow.
SMILES,FPRL1 ligand,VCAM-1 augmentation,VCAM-1 imaging,VCAM-1 inhibition,FPR binder
COc1cc(C2NC(=O)NC(C)=C2C(=O)OCC2CCCO2)ccc1O (configuration not stated),-2,i,i,i,-4
CC(C)Oc1cc(O)c2c(=O)c(-c3ccc(O)cc3)coc2c1,-3,.,.,.,-4
Cc1cc(C)c(NC(=O)CN2CCN(C)CC2)c(C)c1,-1,.,.,.,2
Cc1ccc(NC(=O)c2ccc(F)c(S(=O)(=O)N3CCOCC3)c2)cc1F,-2,.,.,.,-1
COC(=O)c1cccc(S(=O)(=O)N2CCN(c3nc4ccccc4s3)CC2)c1,0,i,i,i,-4
O=c1c2cc3ccccc3n2cnn1Cc1ccccc1F,-14,i,i,i,-12
O=C(CSc1ncnc2c1oc1ccccc12)OCc1ccccc1,14,.,.,.,0
O=C(Nc1nnc(CCN2CCCCC2)s1)C1CCCCC1,6,i,i,i,-1
O=C(NCc1ccco1)c1cc(-c2cccc(Cl)c2)on1,-1,.,.,.,1
COCCNC(=O)c1sc2nc(-c3ccccc3)cn2c1C,-7,.,.,.,3
CC(NC(=O)CNC(=O)OCc1ccccc1)C(=O)N1CC(O)CC1C(=O)OCc1ccccc1 (configuration not stated),-4,.,.,.,2
CCN(CC)CCCN1C(=O)C(=O)/C(=C(/O)c2ccc3c(c2)CC(C)O3)C1c1cccnc1 (configuration not stated),-3,.,.,.,-4
Cc1ccc2c(c1)c1c3n2CCN(C(=O)C2CC2)C3CCC1 (configuration not stated),-7,.,.,.,0
CCOC(=O)N(C)c1ccc(C(O)(C(F)(F)F)C(F)(F)F)cc1,0,i,i,i,4
COc1cccc(OC)c1C(=O)N1CCOCC1,10,i,i,i,1
COc1cc(Nc2cc(C)nc3ncnn23)cc(OC)c1,3,.,.,.,-2
COc1cccc(-c2nnc(SCC(=O)N3CCOCC3)o2)c1,13,.,.,.,-10
N#Cc1nc(-c2ccc(F)cc2)oc1NCc1cccc2c1OCO2,0,.,.,.,2
O=C(Nc1ccccc1)c1cccc(N2CCCC2=O)c1,4,i,i,i,-1
CC1CC(C)CN(c2nc3c(c(=O)[nH]c(=O)n3C)n2CCCSc2nc3ccccc3s2)C1 (configuration not stated),0,i,i,i,-2
O=C(Nc1ccccc1C(F)(F)F)c1cc(S(=O)(=O)N2CCOCC2)ccc1F,-9,i,i,i,4
CC(=O)OCC(=O)[C@H]1CC[C@H]2[C@@H]3CCC4=CC(=O)CC[C@]4(C)[C@H]3CC[C@]12C,-2,i,78%*,i,-6
Cc1cccc(NC(=O)C2CCN(S(=O)(=O)c3cccc4cccnc34)CC2)c1,-5,.,.,.,1
Cc1noc(C)c1S(=O)(=O)N1CCCC(C(=O)Nc2cccnc2)C1 (configuration not stated),4,.,.,.,-2
CC(=O)N1CCc2cc(Br)cc(S(=O)(=O)NCCN3CCCCC3C)c21 (configuration not stated),1,.,.,.,2
COc1ccc(Cl)cc1N(C)C(=O)CCc1nc(-c2ccc(C)cc2)no1,-3,.,.,.,-1
CCSc1nnc(NC(=O)CSc2nnc(Cc3cccn3C)n2-c2ccc(F)cc2)s1,1,.,.,.,15
CNC(=O)c1ccc2nc(NC(C)=O)sc2c1,1,i,i,i,-1
CCOC(=O)C1CCCN(c2c(N3CCc4ccccc4C3)c(=O)c2=O)C1 (configuration not stated),3,.,.,.,0
CCOc1ccccc1NC(=O)Cn1nnc(C(=O)Nc2ccc(C)cc2)c1N,1,.,.,.,0
COc1ccc(OC)c(Nc2cc(C(=O)NCCCN3CCOCC3)c3ccccc3n2)c1,12,.,.,.,18
COc1cc(NC(=O)C2CCCN2C(=O)OCc2ccccc2)cc(OC)c1 (configuration not stated),0,.,.,.,4
CCN(CC)S(=O)(=O)c1ccc2oc(C(=O)NCc3ccc(F)cc3)c(C)c2c1,7,.,.,.,6
O=C(NCCC1=CCCCC1)c1ccc2c(=O)n3c(nc2c1)CCCCC3,0,.,.,.,1
COc1ccc(S(=O)(=O)N(C)CC(=O)N2CCCCC2)cc1Cl,-3,i,i,i,1
Cn1c(C(=O)N2CCC(C(N)=O)CC2)cc2c(=O)n(C)c3ccccc3c21,-1,.,.,.,-1
O=C(NCc1ccco1)C1CCN(S(=O)(=O)N2CCOCC2)CC1,14,.,.,.,-3
CCOc1ccc(OCc2cccc(C(=O)N3CCCC3)c2)cc1,0,i,i,i,-2
O=C(Cn1cnc2c(nnn2-c2ccc(F)cc2)c1=O)N1CCCc2ccccc21,-2,i,i,i,-4
O=C(NCC(c1cccnc1)N1CCOCC1)c1ccco1 (configuration not stated),-2,i,i,i,-6
CCCC(=O)Nc1cccc(NC(=O)CN2CCN(c3ccccc3OC)CC2)c1,-9,i,i,i,-17
O=C(CCS(=O)(=O)c1cccc2nsnc12)N1CC(=O)N(CCc2ccccc2)C(=O)C1,0,.,.,.,7
CCOc1cc2[nH]c(=O)n(CCCCC(=O)NC3CCCCCC3)c(=O)c2cc1OCC,8,.,.,.,0
Cc1c(C(=O)NCc2ccc3c(c2)OCO3)oc2ccc(S(=O)(=O)N3CCC(C)CC3)cc12,11,.,.,.,-2
COc1ccc(C(NC(=O)CNC(C)=O)C(=O)Nc2ccc3c(c2)OCCO3)cc1 (configuration not stated),-4,.,.,.,-1
CCCCNC(=O)c1c(O)c2cccc3c2n(c1=O)CCC3,-2,.,.,.,4
COc1ccc(CNn2c(C)nc3ccccc3c2=O)cc1,-2,.,.,.,0
COc1ccc(OC)c(N2C(N)=C(C#N)C(c3ccc(OC)c(O)c3)C3=C2CC(C)(C)CC3=O)c1 (configuration not stated),-4,.,.,.,-3
Cn1c(=O)[nH]c(=O)c2c1nc(Br)n2Cc1ccccc1F,-3,i,i,i,1
O=C1c2oc3ccccc3c(=O)c2C(c2cccnc2)N1Cc1ccco1 (configuration not stated),10,i,i,i,-2

# Rewritten with values under each structure: entries from further up.
# Fields – FPRL1 ligand | VCAM-1 augmentation | VCAM-1 imaging | VCAM-1 inhibition | FPR binder
CCOc1cc2[nH]c(=O)n(CCCCC(=O)NC3CCCCCC3)c(=O)c2cc1OCC
→ 8 | . | . | . | 0
Cc1c(C(=O)NCc2ccc3c(c2)OCO3)oc2ccc(S(=O)(=O)N3CCC(C)CC3)cc12
→ 11 | . | . | . | -2

# Next entries.
SMILES,FPRL1 ligand,VCAM-1 augmentation,VCAM-1 imaging,VCAM-1 inhibition,FPR binder
COc1ccc(C)cc1NC(=O)CN1CCN(c2ccccc2F)CC1,-6,.,.,.,-8
CNC(=O)CC(C(=O)O)c1ccc(OCC(C)C)cc1 (configuration not stated),0,i,i,i,-6
Cc1c(C(=O)O)oc2ccc(S(=O)(=O)N(CC(C)C)CC(C)C)cc12,7,.,.,.,0
O=C(CCS(=O)(=O)c1cccs1)N1CCN(c2ccc(F)cc2)CC1,2,.,.,.,-3
CCOC(=O)N1CCC(NC(=O)c2cc(C(=O)NCc3cccc(Cl)c3)ccc2CO)CC1,0,.,.,.,6
O=C(O)CSCNC(=O)CC12CC3CC(CC(C3)C1)C2,0,.,.,.,-3
O=C(NC1CCCCCCC1)C1CCN(S(=O)(=O)N2CCCC2)CC1,-5,.,.,.,1
Cc1c(Cl)cccc1N1C(=O)c2ccccc2C1=O,-7,i,i,i,-3
Cc1ccc(N2C(=O)Nc3ccc(Br)cc3C2(O)C(=O)NCCCN(C)C)cc1C (configuration not stated),6,.,.,.,6
O=S(=O)(Nc1ncccn1)c1ccc(Nc2ncnc3ccccc23)cc1,-4,i,i,i,6
C=CCn1c(=N)n(CC(O)COc2ccccc2OC)c2ccccc21 (configuration not stated),-1,.,.,.,-6
O=C(CN1CCOCC1)NCC12CC3CC(CC(C3)C1)C2,-3,.,.,.,-2
O=C(c1ccc2c(c1)OCO2)N1CCN=C1SCc1cccnc1,-2,.,.,.,-8
CCOC(=O)c1sc2ncn(/N=C/N(C)C)c(=O)c2c1C,6,i,i,i,1
O=C(NCc1ccco1)c1cc2c(s1)CSC2,-8,i,i,i,-3
O=C(c1ccco1)N1CCN(S(=O)(=O)c2cccc3nsnc23)CC1,0,.,.,.,2
CC(=O)Nc1ccc(NC2=CC(=O)CC(C)(C)C2)cc1,-2,i,i,i,0
Cc1csc(NC(=O)CSc2nnc(Cn3c(=O)sc4ccccc43)n2-c2ccccc2)n1,-5,.,.,.,10
COc1ccc(CC(=O)Nc2c3c(nn2-c2cccc(Cl)c2)CS(=O)C3)cc1 (configuration not stated),2,i,i,i,-7
CC(C(=O)Oc1ccc2c(c1)OCO2)N1C(=O)c2ccccc2C1=O (configuration not stated),-1,i,i,i,7

# With a hit mark in VCAM-1 imaging, of those listed so far:
compound	VCAM-1 augmentation	VCAM-1 imaging	VCAM-1 inhibition
CC(=O)OCC(=O)[C@H]1CC[C@H]2[C@@H]3CCC4=CC(=O)CC[C@]4(C)[C@H]3CC[C@]12C	i	78%*	i

# Next part.
SMILES,FPRL1 ligand,VCAM-1 augmentation,VCAM-1 imaging,VCAM-1 inhibition,FPR binder
Cn1c(C(=O)NCCN2CCN(c3ccccc3F)CC2)cc2c(=O)n(C)c3ccccc3c21,-2,i,i,i,-1
O=C(O)c1ccn(Cn2cnc3ccccc32)n1,6,.,.,.,-1
COCCn1c(C)cc(C(=O)COC(=O)c2n[nH]c3ccccc23)c1C,0,i,i,i,2
COc1ccc(C2=NO[C@@H]3C(=O)N(c4cccc(C)c4C)C(=O)[C@H]23)cc1OC,9,i,i,i,-4
Cc1cc(C(F)(F)F)nc(NCc2cccnc2)n1,0,i,i,i,-3
CC(C)Cn1c(N)c(C(=O)NCCN2CCOCC2)c2nc3ccccc3nc21,3,i,i,i,7
CC(C)(C)n1ncc2c(=O)n(CC(=O)Nc3ccc(Cl)cc3)cnc21,0,.,.,.,2
Cc1ccc(NC(=O)Nc2cccs2)cc1,-1,.,.,.,-9
Cc1ccc(S(=O)(=O)c2c(C)nn(C(C)(C)C)c2OC(=O)c2ccc(Br)o2)cc1,10,.,.,.,-4

# A portion of the library; rates above refer to the full screens.
